HSD17B inhib: qHTS Assay for Inhibitors of HSD17B4, hydroxysteroid (17-beta) dehydrogenase 4; recombinant HSD17B10, NADH fluorescence kinetic; many of its hits are not listed in these tables; 3-hydroxyacyl-CoA dehydrogenase type-2 (Homo sapiens), Q99714; AID 893, 2007; 75,000 tested, 7.6% active; Potency, µM (top dose mostly 57.1 µM), without a hit: top-dose activity change, negative = inhibition, most hits filed as inhibitors; active = well fitted inhibition curve with a large enough effect; inconclusive = small, poorly fitted or top-dose-only effect; inactive = no such curve, though single readings can be large or run the other way;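 note: the protocol describes HADH2 (HSD17B10) and not the HSD17B4 of the title; nearly all actives have a fitted effect of over 70% in size; most hits overshoot -100% by far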
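Enzyme plus compound, 15 min room temperature; substrate mix added (NAD+ 1 mM, beta-hydroxybutyryl-CoA 90 uM final); plates read kinetically for NADH fluorescence. HADH2 was His-tagged, E. coli-derived, 20 nM.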
Active calls of the source: *; ? = inconclusive; & = joins results of further samples; [ ] = another dose, or the depositor's remark. % is set by controls: 0 for no effect and ±100 for the full control effect; potency is the fitted concentration of half-maximal effect. Some of the compounds tested; count on the stated rates, not on these rows.

SMILES	HSD17B inhib
COc1cccc(C(=O)NCc2cn3ccsc3n2)c1	4%
Cc1cccc2c1Oc1ccccc1[C@@H]2NC(=O)c1ccc([N+](=O)[O-])cc1	-1%[11.4 µM]
COc1ccc(-c2c3c(=O)n(C)c(=O)n(C)c3cn2-c2cccc(OC)c2)cc1	3%
COc1ccc(C(=O)N2CCC3(CCCN(Cc4cc(C(F)(F)F)cc(C(F)(F)F)c4)C3)CC2)cc1	-9%
CCc1ccc(O)c(N=Cc2cccc(C)c2O)c1	?
CCC1(C)Cc2c(C#N)c(N)n(-c3ccccc3)c(=O)c2CO1 (stereo not drawn)	-2%
N#CCCn1c(=O)c(-c2ccc(Cl)cc2)nc2cnc(Oc3cccc(Cl)c3)nc21	?
COCCN1C(=O)C(=O)/C(=C(/O)c2ccc3c(c2)OCCO3)C1c1ccc(C(=O)OC)cc1 (stereo not drawn)	-7%
COc1ccc(C(=O)CSc2nnc(-c3ccccn3)n2Cc2ccco2)cc1	-15%
Cc1ccc(-c2cc(-c3ccc(F)cc3)nc(N)c2C#N)o1	9%
O=C(c1cccc(F)c1)N1CCC2(CCCN(Cc3nccs3)C2)CC1	14%
O=C(CSc1ncnc2nc[nH]c12)N1CCN(c2ccc(Cl)cc2)CC1	2%
CCCn1c(CNC(=O)Cc2ccccc2)nc2ccccc21	1%
Cc1ccccc1Cc1c(C)nc2nc(SCC(=O)NCc3ccco3)nn2c1C	32µM*
CC(=O)N1CCc2cc(C(=O)CN3CCC(C)CC3)ccc21	-9%
Cc1ccc(CCNC(=O)C2CCN(C(=O)N(C)C)CC2)cc1	11%
CC1=C(C(=O)OC(C)C)C(c2ccc(F)cc2)NC(=O)N1 (stereo not drawn)	2%
COc1ccc(CN=CC2=C(O)CNC2=O)cc1OC	3%
CCOC(=O)C1C(c2ccccc2Cl)NC(=O)N(C)C1(O)C(F)(F)F (stereo not drawn)	5%
CCOC(=O)CSc1nnc(CNC(=O)c2ccco2)n1-c1ccc(F)cc1	-1%
CCOc1ccccc1N(CC(=O)N1CCOCC1)S(=O)(=O)c1ccccc1	2%
Cc1ccccc1-c1cc(N2CCN(C)CC2)ncn1	1%
COc1cc2c(cc1OC)C1(CCCC1)CNC2C (stereo not drawn)	-12%
CCCCCOC(=O)Cn1c(SCC(=O)Nc2ccccc2)nc2c1c(=O)[nH]c(=O)n2C	13%
O=C(OCCNC(=O)c1ccc2ccccc2n1)c1cccnc1	-4%
O=C(COC(=O)C1CC(=O)N(c2ccc3c(c2)OCCO3)C1)Nc1ccc2c(c1)CCC2 (stereo not drawn)	9%
CCOCCCNCC(=O)Nc1ccccc1N1CCOCC1	-8%
CC(C)(C)c1ccccc1NC(=O)c1ccco1	6%
CC(C)CCn1cnc2c([nH]c3cccc(Cl)c32)c1=O	-22%
O=C1[C@H]2[C@H]3[C@H](O)[C@H](O)C/C(=N/OC[C@@H](O)COCc4ccco4)[C@H]3CC[C@@H]2C(=O)N1C[C@@H]1CCCO1	4%[11.4 µM]
COc1ccc(C)cc1NS(=O)(=O)c1cccc2nonc12	2%
Cc1cc(C)n2nc(SCC(=O)NCc3ccco3)nc2n1	8%
CCCN1C2CCCC1CC(NC(=O)c1ccccc1)C2 (stereo not drawn)	6%
Cn1nc(CC(=O)Nc2ncc(Br)s2)c2ccccc2c1=O	7%
COc1ccc(Cn2cccc(NC(=O)Nc3ccc(C#N)cc3)c2=O)cc1	16µM*
Cc1ccccc1NC(=O)CNc1ccccc1N1CCCCC1	-14%
O=C(NCc1ccc(F)cc1)C(c1cccs1)N(C(=O)c1csnn1)C1CC1 (stereo not drawn)	3%
CCOC(=O)CNc1nc(C(C)(C)C)nc2c1nnn2Cc1ccccc1Cl	7%
O=C(O)c1ccc(NC(=O)c2cccs2)cc1	7%
COc1cccc(-n2c(SCC(=O)NCCc3ccccc3)nnc2-c2ccoc2C)c1	-15%
COc1ccccc1C(=O)NCCCn1cc(Br)c(C)n1	3%
CC(=O)OCC(=O)Nc1ccc(Cl)cc1Cl	6%
C[C@@H]1/C=C\CC(=O)OC[C@H](C)C(=O)N[C@@H](C)C(=O)OC1	3%[11.4 µM]
Cc1cccc(N2CCN(C(=O)c3ccc(Cl)c(S(=O)(=O)NCc4ccco4)c3)CC2)c1C	-7%
CC(=O)Nc1cccc(-c2csc(NCc3ccco3)n2)c1	-3%

Compounds shown so far with bromine (2):
SMILES	HSD17B inhib
Cn1nc(CC(=O)Nc2ncc(Br)s2)c2ccccc2c1=O	7%
COc1ccccc1C(=O)NCCCn1cc(Br)c(C)n1	3%

(continued)
SMILES	HSD17B inhib
COc1ccc(NC(=O)N2CC3(CCN(C(=O)c4ccco4)CC3)C2)cc1	-5%
Cc1nnc2n1NC(c1ccc(Cl)cc1)C(C(=O)N(C)C1CCCCC1)S2 (stereo not drawn)	4%
COC(=O)c1c(NC(=O)Cc2cccs2)sc(C(=O)N2CCCCC2)c1C	4%
Cc1cc(=O)n2c(C)n[nH]c2n1	5%
O=C(NCC1CCCO1)c1ccccn1 (stereo not drawn)	9%
O=C(CSc1nnc(NC2CCCCC2)s1)NC1CCS(=O)(=O)C1 (stereo not drawn)	-8%
CCCC(O)C(CC)CO (stereo not drawn)	4%
Cc1cc(C2C(=O)CC(=O)CC2c2ccccc2)on1 (stereo not drawn)	-2%
CSc1nc2nc(-c3ccccc3)cc(C(F)(F)F)n2n1	32µM*
CCN(C(=O)CSc1nnc(-c2ccccc2Cl)n1C1CCCC1)C1CCS(=O)(=O)C1 (stereo not drawn)	6%
CCNc1nc(NCC)nc(-n2nc(C)cc2C)n1	1%
OCCN(Cc1ccccc1)CC1CCCCC1	2%
N#Cc1nc(-c2ccccc2F)oc1NCCc1ccccn1	3.2µM*
CCOc1ccc2nc(C)cc(C(=O)O)c2c1	13µM*
CCc1nn(C(C)C(=O)N2CCN(Cc3ccccc3)CC2)c(=O)c2cc3occc3n12 (stereo not drawn)	-5%

In another format: four of the compounds above.
| mol | HSD17B inhib |
| --- | --- |
| COc1cccc(-n2c(SCC(=O)NCCc3ccccc3)nnc2-c2ccoc2C)c1 | -15% |
| CCCCCOC(=O)Cn1c(SCC(=O)Nc2ccccc2)nc2c1c(=O)[nH]c(=O)n2C | 13% |
| Cc1nnc2n1NC(c1ccc(Cl)cc1)C(C(=O)N(C)C1CCCCC1)S2 (stereo not drawn) | 4% |
| Cc1ccccc1-c1cc(N2CCN(C)CC2)ncn1 | 1% |

(cont.)
SMILES	HSD17B inhib
O=c1c2ccccc2nc2n1CCN2Cc1ccc(Cl)cc1	32µM*
O=C(NCc1cccnc1)Nc1cccc(NC(=O)NCc2cccnc2)c1	-1%
CC(NS(C)(=O)=O)C(c1cccs1)N1CCN(Cc2ccccc2)CC1 (stereo not drawn)	7%
COCCCNC(=O)COc1ccc(Cl)c(C)c1	7%
COc1ccc2c(c1)CCc1c(C(=O)Nc3c(C)n(C)n(-c4ccccc4)c3=O)noc1-2	3%
Cc1ccc(-c2nc(N)n(C(=O)c3cccnc3)n2)cc1	?
COCc1cc(=O)n2c(-c3ccccc3OC)n[nH]c2n1	?
C=CCn1c(SCC(=O)Nc2ccc(C(=O)OCC)cc2)nnc1-c1sc(N)nc1C	7%
CCOc1ccc(C(=O)COC(C)=O)cc1	-8%
CCC(=O)Nc1cc2c(cc1C(C)=O)OCCO2	32µM*
CSc1nnnn1-c1ccc(C(=O)OCC(=O)N2CCOCC2)cc1	10%
COc1ccc(CCNC(=O)Cn2cnc3c(cnn3C(C)(C)C)c2=O)cc1OC	0%
CCCOc1ccc(C2c3c(oc4cc(C)c(C)cc4c3=O)C(=O)N2CCCN(C)C)cc1 (stereo not drawn)	-10%
O=S(=O)(c1ccc(F)cc1)N1CCC(N2CCN(c3ccccc3)CC2)CC1	5%
COc1cccc(-n2nnnc2SCC(=O)NCCc2ccccc2)c1	-9%
O=c1c2c(nc3nc(CCc4ccccc4)[nH]n13)CCC2	3%
CCc1noc2c1/C(=N\O)CC(c1ccccc1)C2 (stereo not drawn)	0%
Cc1ccc(C2C(C#N)=C(N)Oc3c2oc(CO)cc3=O)o1 (stereo not drawn)	?
C=CCn1c(N)c(S(=O)(=O)c2cccs2)c2nc3ccccc3nc21	25µM*
COC(=O)c1ccc(C(/C=C/[C@@H](C)C(=O)NCc2cc(C)n(C)n2)NC(=O)OCc2ccccc2)cc1 (stereo partly drawn)	6%
Cc1nn(-c2ccccc2)c2nc(-c3ccco3)cc(C(=O)O)c12	25µM*
CCCCNC(=O)c1ccc(NS(=O)(=O)c2ccccc2)cc1	1%
CN(C)c1ccc(-c2nc3ccccc3n2C)cc1	25µM*
CC(C)Oc1ccc(NC(=O)c2ccncc2)cc1	6%
Cc1cccc(N2CCN(C3=NC(=O)C(=C4CCCCC4)S3)CC2)c1	-1%
CCCCCn1c(SCC(=O)OCC)nc2cc(C(=O)NCc3ccco3)ccc2c1=O	-5%
COc1ccc(NC(=O)Nc2cccc(OC)c2)cc1	-4%
Cc1noc(C)c1C(=O)Nc1sc2c(c1C(N)=O)CCCCC2	-6%
O=C(NCc1ccccn1)Nc1ccc(F)cc1	8%
O=C(c1cccs1)N1CCOCC1	6%
CCOC(=O)Cn1nc(-c2ccccc2)nc1-c1ccccc1	2%
Cc1cc(OCn2ccc(C(=O)O)n2)ccc1Cl	0%
Cc1cccc2cc(CN(Cc3ccco3)C(=O)c3ccncc3)c(=O)[nH]c12	?
N[C@@H]1CCN(O)C1=O	-2%&-9%
CC(C)N=C(NC#N)SCc1ccc(F)cc1	8%
CCOc1ccc(N2CC(C(=O)Nc3ccccc3OC)CC2=O)cc1 (stereo not drawn)	10%
CCCOC1CCCN(C(=O)c2cc(Cl)c(Cl)cc2C(=O)O)C1 (stereo not drawn)	-4%
COC(=O)c1ccccc1NC(=O)CN1C(=O)c2ccccc2S1(=O)=O	36%[activator]
Cc1ccc(S(=O)(=O)N2CCOCC2)cc1C(=O)Nc1nc(-c2cccnc2)cs1	-8%
CC(C)(C)c1ccccc1OCCCCCNCCO	-1%
COc1cccc(CNC(=O)CN(c2cc(C)cc(C)c2)S(=O)(=O)c2c(C)noc2C)c1	2%
N#Cc1c(NC(=O)CSc2ncc(-c3ccccc3)n2CC2CCCO2)sc2c1CCCC2 (stereo not drawn)	-4%
COc1ccc(C2CC(c3c(Cl)cccc3Cl)n3nc(N)nc3N2)cc1 (stereo not drawn)	1%
CCC(C)(C)NC(=O)C(c1cccn1C)N(Cc1ccc(C)cc1)C(=O)Cn1nnc2ccccc21 (stereo not drawn)	9%
COc1ccc(CNC(=O)C2CCN(C(=O)N3CCOc4ccc(C)cc43)CC2)cc1	-2%

7 structures already listed, arranged by count of non-hydrogen atoms, smallest number first:
SMILES	HSD17B inhib
N[C@@H]1CCN(O)C1=O	-2%&-9%
Cc1cc(OCn2ccc(C(=O)O)n2)ccc1Cl	0%
CCCOC1CCCN(C(=O)c2cc(Cl)c(Cl)cc2C(=O)O)C1 (stereo not drawn)	-4%
COc1ccc(C2CC(c3c(Cl)cccc3Cl)n3nc(N)nc3N2)cc1 (stereo not drawn)	1%
COc1ccc(CNC(=O)C2CCN(C(=O)N3CCOc4ccc(C)cc43)CC2)cc1	-2%
COc1cccc(CNC(=O)CN(c2cc(C)cc(C)c2)S(=O)(=O)c2c(C)noc2C)c1	2%
CCC(C)(C)NC(=O)C(c1cccn1C)N(Cc1ccc(C)cc1)C(=O)Cn1nnc2ccccc21 (stereo not drawn)	9%

Additional records follow.
SMILES	HSD17B inhib
CCn1cnc2scc(-c3ccccc3)c2c1=O	-12%
CCOC(=O)N1CCC(NC(=O)c2ccc(CNS(=O)(=O)c3ccc(F)cc3)cc2)CC1	9%
CCn1c(SCC(N)=O)nc2c(c1=O)C1(CCCC1)Cc1ccccc1-2	-25%
CCOC(=O)CC(=O)CSc1nc2c(c(C)c1C#N)CCC2	32µM*
CCOC(=O)C1CCN(C(=O)C2(NC(=O)Nc3ccccc3Cl)CCCCC2)CC1	11%
Cc1c(C(O)CN2CCC(C(N)=O)CC2)c2ccccc2n1C (stereo not drawn)	-14%
NC(=O)c1sc2nc3c(c(-c4cccs4)c2c1N)CCCC3	-20%
Clc1cc(Cl)cc(Cl)c1	2%
CC(C)(C)c1cc(C(=O)O)nn1-c1ccccc1	10%
COc1c2c(nc3ccccc13)O[C@H]([C@@](C)(O)CO)C2	-3%[25.6 µM]
Cc1ccc2ncccc2c1NS(=O)(=O)c1ccccc1	1%
Cc1n[nH]c(C)c1S(=O)(=O)N1CCCC(C(=O)Nc2ccc3c(c2)OCCO3)C1 (stereo not drawn)	-1%
Cc1ccccc1C(=O)Nc1ccc2c(c1)OCO2	2%
Cc1cccc(NC2=NC3(CCCCC3)N=C(N)N2)c1C	2%
O=C(c1cnn2c(C(F)(F)F)cc(-c3ccco3)nc12)N1CCCCCC1	?
Cc1nc2ccc(C(C(F)(F)F)(C(F)(F)F)C(F)(F)F)cc2[nH]1	98%[activator]
O=C1CC(N2CCC(c3nc4ccccc4o3)CC2)C(=O)N1c1ccc(Cl)cc1 (stereo not drawn)	0%
O=C(C1CCCCC1)N(CCN1CCCC1)c1nc2ccccc2s1	-1%
CCOC(=O)N1CCN(Cc2nc3c(c(=O)n(C)c(=O)n3C)n2Cc2ccc(F)cc2)CC1	?
Cc1cccc(OCc2nnc(SCC(=O)c3cccs3)n2C)c1C	0%
CCCCCCn1cnc2c(c1=O)c1nc3ccccc3nc1n2/N=C/c1ccco1	-7%
Cc1cc(Nc2cc(C)on2)n2ncnc2n1	-1%
O=C1CSC(=NC(=O)c2ccccc2)N1	-4%
CC(=O)c1cccc(N(CC(=O)O)S(C)(=O)=O)c1	19%
O=C(CN(C(=O)Cn1nnc(-c2cccs2)n1)c1cnc2ccccc2c1)NCC1CCCO1 (stereo not drawn)	0%
Cc1ccc(N(C(C)C(=O)O)S(=O)(=O)c2cccnc2)cc1 (stereo not drawn)	-3%
Cc1cnc(CNc2nc(-c3ccccc3C)nc3ccccc23)cn1	-4%

Assay outcomes (PubChem)
